miR-21 FLuc: qHTS Assay for Modulators of miRNAs and/orActivators of miR-21. HeLa miR-21 FLuc reporter, luciferase, 48 h. Potency, µM (doses to about 38.3 µM), for the others: at the highest dose reporter change, positive = more light. AID 2288, 2010. 340,000 tested, under 10 active; active = well fitted rising curve with a large enough effect; inconclusive = small, poorly fitted or top-dose-only effect; inactive = no such curve, though single readings can be large or run the other way;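 note: % of control where 0% means no effect; miR-21 action dims this reporter so a rising signal means less miR-21 action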
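HeLa cells endogenously expressing miR-21, stably carrying CMV-driven firefly luciferase with a downstream miR-21 binding site, 2000 cells/well. Titrations up to approximately 40 uM, 48 hours; luciferase luminescence read.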
Rango dissoc inh: qHTS Assay for Inhibitors of RanGTP induced Rango (Ran-regulated importin-beta cargo) - Importin beta complex dissociation | Biochemical FRET Rango-importin beta, RanGTP-induced dissociation | actives 0.071% (n = 340,000) | Potency, µM (highest dose often 46.1 µM), without a hit: top-dose activity change, negative = inhibition | Snurportin-1 (Homo sapiens) + GTP-binding nuclear protein Ran (Homo sapiens) + Importin …; active means falling FRET ratio curve, often poorly fitted, with flat reads before Ran was added; inconclusive means other falling curves, or compound fluorescence or quenching; inactive means flat or rising ratio curve;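 note: potency is the fitted concentration of half-maximal effect; % of control where 0% means no effect; nearly all actives have a fitted effect of over 45% in size; -100% = wells without RanGTP and RCC1; the record marks most hits as doubtful in a second field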
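FRET read at 45 min, room temperature: inhibitors block the CFP/YFP signal rise when RanGTP (0.6 uM Ran, 2 mM GTP, 0.2 uM RCC1) frees Rango (0.1 uM) from importin beta (0.25 uM). Pre-read after 5 min compound exposure flags interference.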
Rango complex inh: qHTS Assay for Inhibitors of Rango (Ran-regulated importin-beta cargo) - Importin beta complex formation. Rango CFP/YFP FRET sensor + importin beta, 45 min. Potency, µM (titrated, usually from 92.2 µM), without a hit: at the top dose inhibition of complex formation. actives 0.031% (n = 340,000); active = rising FRET ratio curve, often small or poorly fitted; inconclusive = mostly compound fluorescence or quenching in the first reads; inactive = flat curves in all reads;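 note: potency is the fitted concentration of half-maximal effect; 0% = DMSO wells and 100% = buffer wells lacking importin beta; nearly all actives have a fitted effect of over 15% in size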
Target sequence (Q14974 whole entry, looked up): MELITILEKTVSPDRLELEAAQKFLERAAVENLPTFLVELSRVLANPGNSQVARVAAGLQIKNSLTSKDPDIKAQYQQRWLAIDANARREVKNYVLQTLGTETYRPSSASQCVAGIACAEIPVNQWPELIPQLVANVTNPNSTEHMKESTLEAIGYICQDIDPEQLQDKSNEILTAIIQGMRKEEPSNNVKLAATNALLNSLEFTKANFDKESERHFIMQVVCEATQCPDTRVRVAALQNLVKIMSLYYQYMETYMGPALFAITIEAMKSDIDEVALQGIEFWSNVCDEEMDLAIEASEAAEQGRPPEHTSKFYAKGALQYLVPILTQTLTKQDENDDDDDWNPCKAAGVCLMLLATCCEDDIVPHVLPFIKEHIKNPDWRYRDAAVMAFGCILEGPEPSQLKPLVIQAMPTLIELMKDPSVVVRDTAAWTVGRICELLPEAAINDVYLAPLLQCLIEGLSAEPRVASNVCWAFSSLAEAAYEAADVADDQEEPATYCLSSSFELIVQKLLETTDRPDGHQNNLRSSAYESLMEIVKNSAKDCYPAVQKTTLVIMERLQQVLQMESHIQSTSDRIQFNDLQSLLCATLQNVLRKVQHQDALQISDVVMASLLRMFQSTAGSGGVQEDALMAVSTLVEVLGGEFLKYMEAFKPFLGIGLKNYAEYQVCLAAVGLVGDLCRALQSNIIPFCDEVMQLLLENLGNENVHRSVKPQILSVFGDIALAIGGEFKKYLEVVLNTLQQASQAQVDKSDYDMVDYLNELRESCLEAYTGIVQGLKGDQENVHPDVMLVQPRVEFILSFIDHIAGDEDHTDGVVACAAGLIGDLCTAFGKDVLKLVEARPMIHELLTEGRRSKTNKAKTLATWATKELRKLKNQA
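FRET biosensor (snurportin 1 IBB flanked by EYFP and cerulean), 50 nM, with compound 5 min, then 0.125 microM importin beta in PBS, 1 mM DTT, 0.02% Tween-20, 0.1% BSA. CFP/YFP ratio read after 45 min at room temperature; pre-read flags interference.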
GLA inh pH 4.5: qHTS Assay for Inhibitors of Human alpha-Galactosidase at pH 4.5; purified enzyme, 4-MU-alpha-Gal fluorescence, pH 4.5; 230,000 tested, under 10 active; Alpha-galactosidase A (Homo sapiens), P06280; activity change, negative = inhibition, % at 105 µM; AID 1467, 2008; inconclusive = small, poorly fitted or top-dose-only inhibition, or a rising curve; inactive = flat fitted curve, though single readings scatter; no compound was filed as active;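 note: 0% = full activity with enzyme and -100% = basal without enzyme; dose as in the result columns while the protocol names 77 µM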
The depositor's hits bear a star; ? = inconclusive; · = not tested or not shown; [ ] = remark or other dose. The list is partial; count on the stated rates, not on these rows.

SMILES | miR-21 FLuc | Rango dissoc inh | Rango complex inh | GLA inh pH 4.5
O=C1C2CC=CCC2C(=O)N1c1n[nH]c(CCc2ccccc2)n1 (stereo unspecified) | -2% | -8% | 0.0% | -5
O=S(=O)(c1ccccc1)n1ccc(-c2cnc(-c3ccccc3)s2)n1 | -48% | 1% | ? | -21
CN1C(=O)C(=O)N(CC(=O)Nc2ccccc2OC(F)F)C1=O | · | -1% | 3.8% | ·
CC(=O)NCCc1nc2ccccc2n1CCOc1cccc(C)c1 | -9% | 8% | 2.5% | -2
CCN(CC)CCCNC(=O)c1cn(CC)c2ccc(S(=O)(=O)N(C)C3CCCCC3)cc2c1=O | -1% | -10% | 0.4% | ·
CN(C1CCCCC1)S(=O)(=O)c1ccc2c(c1)CCC(=O)N2 | · | 2% | 4.8% | ·
CC(C)C(NC(=O)c1ccccc1NC(=O)c1ccco1)C(=O)O (stereo unspecified) | -3% | 9% | -0.1% | -7
COc1c2ccccc2nc2ccccc12 | -11% | ? | ? | ·
O=C(NC1CCCCC1)C(=O)c1c(-c2ccccc2)[nH]c2ccccc12 | -8% | -1% | 4.8% | 9
CCS(=O)(=O)c1nc(S(=O)(=O)c2ccc(C)cc2)c(N2CC(C)OC(C)C2)s1 (stereo unspecified) | 10% | 1% | 5.4% | ·
OC[C@H]1OC(O)[C@H](O)[C@@H](O)[C@H]1O (stereo partly specified) | · | -2% | ? | ·
COc1cc(S(=O)(=O)Nc2ncccc2C)c(OC)cc1Cl | -2% | 1% | 2.6% | -1
O=C(Nc1ccc(OC(F)(F)F)cc1)c1cnc2n(c1=O)CCS2 | -14% | 1% | 0.7% | 8
COc1ccc(N=C2S/C(=C\c3ccc(C)s3)C(=O)N2CC(C)C)cc1 | 0% | -5% | -0.1% | -3
O=C(CNC(=O)c1ccco1)NCC(=O)OCc1ccc(Cl)cc1 | 1% | 8% | 2.0% | -3
O=C(O)CCSc1nnnn1-c1ccccc1 | -6% | 29% | 2.2% | 0
CC(=O)OCC(=O)[C@@]12OC(C)(C)O[C@@H]1CC1C3C[C@H](F)C4=CC(=O)C=CC4(C)[C@@]3(F)C(O)CC12C (stereo partly specified) | · | 12% | 0.9% | ·
COCc1nc2ccccc2n1Cc1ccccc1Br | -20% | 0% | -3.5% | -5
CSc1nnc(CCNS(=O)(=O)c2ccc(Br)cc2)n1C | -6% | 3% | -2.3% | ·
Nc1cc(N2CCCCCC2)c2nonc2c1[N+](=O)[O-] | -6% | ? | ? | ·
CCOC(=O)Nc1cc(C)ccc1OC | -1% | 2% | 2.1% | -3
CC1CCN(C(=S)c2cn(Cc3cccc(F)c3)c3ccccc23)CC1 | 0% | 1% | 0.3% | -3
COc1ccc(OCC(=O)N/N=C(\C)c2cccs2)cc1 | -6% | 41% | 2.5% | 3
Cc1cc(OCC(=O)OCC(=O)NCc2ccc3c(c2)OCO3)ccc1Cl | · | 12% | -2.7% | ·
CC(C)C(NC(=O)CNC(=O)OC(C)(C)C)C(=O)NCc1ccc(Cl)cc1 (stereo unspecified) | 0% | -12% | 2.0% | 6

5 entries from above, arranged by SMILES length, ascending.
SMILES | miR-21 FLuc | Rango dissoc inh | Rango complex inh | GLA inh pH 4.5
Nc1cc(N2CCCCCC2)c2nonc2c1[N+](=O)[O-] | -6% | ? | ? | ·
CN(C1CCCCC1)S(=O)(=O)c1ccc2c(c1)CCC(=O)N2 | · | 2% | 4.8% | ·
Cc1cc(OCC(=O)OCC(=O)NCc2ccc3c(c2)OCO3)ccc1Cl | · | 12% | -2.7% | ·
COc1ccc(N=C2S/C(=C\c3ccc(C)s3)C(=O)N2CC(C)C)cc1 | 0% | -5% | -0.1% | -3
CC(=O)OCC(=O)[C@@]12OC(C)(C)O[C@@H]1CC1C3C[C@H](F)C4=CC(=O)C=CC4(C)[C@@]3(F)C(O)CC12C (stereo partly specified) | · | 12% | 0.9% | ·

The main list resumes, starting 3 compounds before the break.
SMILES | miR-21 FLuc | Rango dissoc inh | Rango complex inh | GLA inh pH 4.5
COc1ccc(OCC(=O)N/N=C(\C)c2cccs2)cc1 | -6% | 41% | 2.5% | 3
Cc1cc(OCC(=O)OCC(=O)NCc2ccc3c(c2)OCO3)ccc1Cl | · | 12% | -2.7% | ·
CC(C)C(NC(=O)CNC(=O)OC(C)(C)C)C(=O)NCc1ccc(Cl)cc1 (stereo unspecified) | 0% | -12% | 2.0% | 6
O=C(COC(=O)CCSc1ccccc1)Nc1ccccc1Br | · | -6% | 4.6% | ·
Cc1nnc(SCCCCSc2nnc(C)c(=O)[nH]2)[nH]c1=O | 0% | 4% | 6.7% | 4[21.1 µM]
Cc1c(Cl)cccc1NC(=S)N(CCN(C)C)C(C)c1ccco1 (stereo unspecified) | 8% | 0% | -3.6% | -3
COc1cccc(C(c2cccc(OC)c2)c2ccccc2C(=O)O)c1 | · | -8% | 0.0% | ·
COc1ccccc1N/C(=N/S(=O)(=O)c1ccc(C)cc1)c1ccc(Cl)cc1 | 2% | -9% | 0.2% | -23
Cc1ccc(-n2ncc3c2CCCC3NC(=O)c2ocnc2C)cc1C (stereo unspecified) | 14% | -12% | -0.4% | ·
NC(=O)c1cccc(N=Cc2cc(Cl)cc(Cl)c2O)c1 | 1% | ? | ? | 10
O=C(O)c1ccc(Cn2cnc3sc4c(c3c2=O)CCCC4)cc1 | -11% | -13% | -2.8% | 6
COCC(=O)N=Nc1c(O)[nH]c2ccccc12 | -10% | -11% | -1.5% | -7
CCCCCCC(C)n1[nH]c(=O)c2c(C)cc(=O)[nH]c21 (stereo unspecified) | 0% | ? | 3.4% | 3
CCn1ccnc1C(O)c1cccc2ccccc12 (stereo unspecified) | -5% | -7% | 1.4% | ·
Cc1cccc(/C=N/c2sc3c(c2C(=O)OC(C)(C)C)CCN(C)C3)c1O | -4% | ? | ? | 2
N#C/C(=C\c1cccnc1)C(=O)Nc1ccc(O)cc1F | 0% | -1% | -2.2% | ·
Cc1ccc(-c2nnc3n2CCCCC3)cc1 | -8% | 0% | -1.4% | 9
O=C(COc1ccccc1C(=O)NCC1CCCO1)Nc1ccc(Cl)cc1Cl (stereo unspecified) | 7% | 22% | -1.1% | 2
O=C(Nc1ccc2c(c1)OCCO2)c1coc2ccccc2c1=O | -11% | ? | ? | 0
CCCS(=O)(=O)Nc1ccc2cn[nH]c2c1 | -1% | -8% | 2.9% | 7
Cc1ccc(S(=O)(=O)N2CCC(C(=O)NNC(=O)c3ccc(F)cc3)CC2)cc1 | -1% | 6% | 2.2% | -6
S=C(c1ccc(-c2ccccc2Cl)o1)N1CCOCC1 | -53% | 1% | -3.1% | -5
CCCCCC(O)CCC(=O)NNC1=CC(=O)CC(C)(C)C1 (stereo unspecified) | -2% | 5% | 0.6% | -1
CC(C)(C)c1ccc(NC(=S)NCc2cccs2)cc1 | -10% | 1% | -0.2% | 1
COc1ccc(C(=O)CSc2nccc(=O)[nH]2)cc1 | -6% | -2% | 0.4% | 2
COc1ccc(NC(=O)C2C(=O)N(C)C3(C)CC2c2ccccc2O3)cc1 (stereo unspecified) | -16% | 2% | 5.9% | 8
Cc1ccc(COn2c(-c3ccc(Cl)cc3)nc3ccc([N+](=O)[O-])cc32)cc1 | -44% | 28% | 1.3% | 4
O=C(C1CCCCC1)N1CCN(c2ccccc2F)CC1 | -5% | 0% | 3.1% | 2
Carrying on:
SMILES | miR-21 FLuc | Rango dissoc inh | Rango complex inh | GLA inh pH 4.5
COc1ccc(N(CC(=O)NC2CCCCC2)C(=O)CCC(=O)Nc2nc(C)cs2)cc1OC | 0% | -3% | -0.5% | ·
Cc1ccc(Nc2c(-c3ccc(C)o3)nc3ncccn23)cc1 | -36% | ? | ? | -6
CCOc1nc(N2CCCCC2)nc(-n2cc(-c3ccccc3)nn2)n1 | -2% | 1% | -0.4% | -11
O=C(CNS(=O)(=O)c1ccccc1F)NNC(=O)c1ccc(Br)cc1 | · | 0% | 0.6% | ·
CC(=O)N1CCc2cc(S(=O)(=O)NCC(=O)NCc3ccccc3Cl)ccc21 | -5% | ? | 0.0% | ·
Cc1ccc2c(CN3CCCCC3)cc(=O)oc2c1C | -46% | 7% | -0.3% | ·
CCOC(=O)C1=C(COC(=O)CCc2ccccc2)NC(=O)NC1C (stereo unspecified) | · | 6% | 1.7% | ·
CCOC(=O)c1cc(C#N)c(N2CCCCC2)nc1-c1ccccc1 | · | 8% | -0.7% | ·
c1ccc2c3c([nH]c2c1)CCNC3 | 0% | -20% | 0.3% | ·
COc1cc(S(=O)(=O)Nc2cccnc2)ccc1F | 2% | 0% | 0.4% | 2
O=C1CC(SCc2nc3ccccc3[nH]2)C(=O)N1c1cccc(F)c1 (stereo unspecified) | -2% | ? | ? | -1
S=C(NCc1ccccc1)NC1CCCc2ccccc21 (stereo unspecified) | 0% | -16% | 3.8% | 2
S=C(NCCc1ccccc1)Nc1c(Cl)cccc1Cl | -20% | 19% | 1.4% | -4
N#Cc1c(NC(=O)c2cc(C3CC3)on2)sc2c1CCC2 | -5% | -5% | 0.0% | 3
COc1ccc(N2CCN(CC(=O)Nc3cccc(S(=O)(=O)N4CCOCC4)c3)CC2)cc1 | -3% | -10% | -4.2% | 9
Cc1cc(NC(=O)CCC(=O)N(c2ccc(F)cc2)C(C(=O)NC2CCCC2)c2ccc(C)o2)no1 (stereo unspecified) | 15% | 11% | 0.1% | 4
CCN(CCCNC(=O)CCc1nc(-c2ccc(C)cc2)no1)c1cccc(C)c1 | 16% | 17% | -2.2% | -9
Nc1nonc1-n1nnc(C(=O)N/N=C/c2ccc(F)cc2)c1-c1ccc2c(c1)OCO2 | -3% | -6% | -1.3% | ·
Cc1cc(C(=O)OCC(=O)Nc2ccc(S(N)(=O)=O)cc2)c2ccccc2n1 | 0% | 9% | 1.0% | 0
COc1ccc(-c2csc(-c3ccc(C(=O)O)cc3)n2)cc1 | -44% | 12% | 1.6% | 4
CC1c2cccn2CCN1S(=O)(=O)c1ccc(F)cc1 (stereo unspecified) | · | 6% | 0.2% | ·
CCc1nc2ccccc2c(C(=O)OCC(=O)NC(=O)c2cccn2C)c1C | -4% | -11% | ? | -6
COC(=O)C1C(=O)NC(SC)=C(C#N)C1c1ccccc1 (stereo unspecified) | -45% | -7% | -1.4% | -18
CCC1(c2ccc(F)cc2)NC(=O)N(CC(=O)Nc2cc(C)on2)C1=O (stereo unspecified) | · | -13% | -2.4% | ·
CC(C)(CC(=O)O)Cc1nc(-c2ccc(Cl)cc2)no1 | -27% | -22% | -1.7% | 0
(further entries)
SMILES | miR-21 FLuc | Rango dissoc inh | Rango complex inh | GLA inh pH 4.5
CCCn1c(SCC(=O)N2CCCC(C)C2)nnc1-c1cccnc1 (stereo unspecified) | -2% | -11% | -1.3% | -3
COc1ccc(CCNC(C)=O)cc1 | 0% | -2% | 0.5% | 2
O=C(COC(=O)CNC(=O)c1cccc(Br)c1)Nc1nnc(-c2ccccc2)o1 | · | -16% | -4.3% | ·
O=C(/C=C\Nc1ccc2c(c1)OCO2)c1ccccn1 | ? | ? | ? | -1
O=C(O)C1Cc2ccccc2CN1C(=O)COc1ccc(Cl)cc1Cl (stereo unspecified) | 0% | 5% | 2.0% | -4
O=C(c1ccc2ccccc2n1)N(CCO)Cc1ccccc1 | 2% | -25% | -0.3% | ·
CC(NC(=O)COC(=O)C1CCN(c2ccc(C(F)(F)F)cn2)CC1)c1ccc(Br)cc1 (stereo unspecified) | -14% | -2% | -3.3% | ·
CC1(C)CC2(CC(C)(C)N1)OC(=O)N1CCc3ccccc3C12C (stereo unspecified) | -8% | -2% | -2.5% | 1
Cc1ccc(NC(=O)C(NCc2ccccn2)c2ccccc2)cc1 (stereo unspecified) | -38% | 19% | 1.4% | 3
CCn1c(C)nc2cc(C#N)ccc21 | -10% | 4% | -3.0% | 5

Screens as filed in PubChem BioAssay.
